# Bioassay records deposited in PubChem by National Center for Advancing Translational Sciences (NCATS).
# miR-21 FLuc: qHTS Assay for Modulators of miRNAs and/orActivators of miR-21. HeLa miR-21 FLuc reporter, luciferase, 48 h. Potency, µM (titrated, usually from 38.3 µM), inactives show at the highest dose reporter change, positive = more light. 340,000 tested, under 10 active. AID 2288, 2010; active = well fitted rising curve with a large enough effect; inconclusive = small, poorly fitted or top-dose-only effect; inactive = no such curve, though single readings can be large or run the other way;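 note: % of control where 0% means no effect; miR-21 action dims this reporter so a rising signal means less miR-21 action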
#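 Luminescence from a firefly luciferase reporter carrying a miR-21 binding site downstream, stably expressed under a CMV promoter in HeLa cells that make miR-21 endogenously, reports miRNA modulation after 48 h compound exposure up to approximately 40uM final.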
# * hit, by the source's call; ? = inconclusive. The list is partial. The share of hits here may be higher or lower than overall.
structure | miR-21 FLuc
Cc1cccc(-n2ccnc2SCC(=O)Nc2cc(C(F)(F)F)ccc2Cl)c1 | -2%
Cc1ccc(Cl)cc1N1CCN(C(=O)c2cc(S(=O)(=O)N3CCCC3)cn2C)CC1 | -6%
Cc1cc(C)cc(NC(=O)NCc2noc3ccccc23)c1 | -12%
CCN(CC)C(=O)c1sc2c(c1C)c(=O)n(-c1ccc(Cl)c(Cl)c1)c(=O)n2CC(=O)Nc1cccc(OC)c1 | 13%
Cc1ccc(NC(=O)c2c(C)oc3ccc(O)c(CN4CCCC4)c23)c(C)c1 | 3%
CCc1ccc(S(=O)(=O)c2c(C(=O)c3ccccc3)cnc3ccc(CC)cc23)cc1 | 28%
Cc1ccc(CNC(=O)C(CC(C)C)NS(=O)(=O)c2ccc3c(c2)oc(=O)n3C)cc1 (stereo unspecified) | -3%
O=C(CS(=O)(=O)c1cccc2nsnc12)NCc1ccccc1 | -2%
N#Cc1ccccc1NC(=O)C(=O)NCC(c1cccnc1)N1CCc2ccccc21 (stereo unspecified) | -1%
Cc1ccc(C)c(N2CCN(CCCNC(=O)c3ccc4nc(N5CCCCC5)sc4c3)CC2)c1 | ?
COc1ccc(Cl)cc1C1CC(=O)Nc2cc3c(cc21)OCCO3 (stereo unspecified) | ?
CCOc1ccc(-c2c(C)nn3c(C)c(C(=O)NCC(C)c4ccccc4)cnc23)cc1OCC (stereo unspecified) | 28%
CCOc1ccc(CCNC(=O)c2sc3ncccc3c2-n2cccc2)cc1OCC | 16%
CC(=O)Nc1ccc(C2Nc3c(C)cc(C)cc3-c3cc(C)nn32)cc1 (stereo unspecified) | -3%
COc1ccc(Br)cc1CNC(=O)Cn1ncn2nc(-c3cccs3)cc2c1=O | 1%
COc1ccc(CN2CCc3c(c(=O)n4ncc(C(=O)N5CCN(c6ccccc6OC)CC5)c4n3C)C2)cc1 | 29%

# The final 4 compounds of the section above come first, to join the parts:
structure | miR-21 FLuc
CCOc1ccc(CCNC(=O)c2sc3ncccc3c2-n2cccc2)cc1OCC | 16%
CC(=O)Nc1ccc(C2Nc3c(C)cc(C)cc3-c3cc(C)nn32)cc1 (stereo unspecified) | -3%
COc1ccc(Br)cc1CNC(=O)Cn1ncn2nc(-c3cccs3)cc2c1=O | 1%
COc1ccc(CN2CCc3c(c(=O)n4ncc(C(=O)N5CCN(c6ccccc6OC)CC5)c4n3C)C2)cc1 | 29%
Cc1c(CNC2CCCCCC2)c(C(=O)O)c(C)n1Cc1c(F)cccc1Cl | -3%
Cc1cccc(OC(C)C(=O)Nc2ncn[nH]2)c1 (stereo unspecified) | -2%
CCOc1cc2sc(N3CCC(C(=O)Nc4ccc(C(C)C)cc4)CC3)nc2cc1Br | -41%
COc1ccc2nc(SCC(O)c3cccc(Br)c3)[nH]c2c1 (stereo unspecified) | -11%
Cc1ccc(-c2nc(Cn3c(=O)cc(-c4ccccc4)c4c(C)nn(C)c43)c(C)o2)cc1 | 0%
Cc1c(Cl)cccc1NC(=O)N1CCC(CN2CCOCC2)CC1 | -1%
CCOC(=O)C1=C(CN2CCN(c3ccccc3F)CC2)NC(=O)NC1c1ccc(Cl)cc1 (stereo unspecified) | -3%
Cc1nnc(NC(=O)c2nc(SC(C)C)ncc2Cl)s1 | 0%
CCc1nnc(SCc2nc(-c3ccc(OC)cc3)oc2C)c2cc3sccc3n12 | 2%
O=C(CSc1ccccc1)N1CCc2c([nH]c3ccccc23)C1c1ccc(Cl)cc1 (stereo unspecified) | 30%
Cc1ccc(CCNC(=O)c2cc3sccc3n2Cc2ccc(C)cc2)cc1 | 0%
COc1cc(-c2nnc(SCCOc3cc(C)cc(C)c3)o2)cc(OC)c1OC | -5%
Cc1cc(Nc2ccc(Cl)cc2C)nc(-n2nc(C)cc2C)n1 | 18%
CCOC(=O)CNC(=O)CSc1cn(CC(=O)N2CCCCCC2)c2ccccc12 | -1%
Cc1ccccc1-n1c(=O)c2ccccc2n(Cc2ccc(F)cc2)c1=O | -1%
CCCCSc1ncnc2c1c(-c1ccccc1)cn2-c1cccc(F)c1 | 5%
COc1ccc(CNC(=O)C2CCN(c3nnc(-n4cccc4CNc4ccc(C)cc4)s3)CC2)c(OC)c1 | 12%
O=C(NCCc1csc(-c2cccnc2)n1)c1ccc(F)c(F)c1 | -6%
Cc1ccc(OC(=O)CSc2nnc(-c3cccs3)o2)cc1 | 1%
COc1ccc(C2C(=O)N(C3CCCCCC3)CC(=O)N2CCc2ccccc2)cc1 (stereo unspecified) | -7%
COc1ccc(Cl)cc1S(=O)(=O)N1CCN(CC(=O)Nc2ccccc2C(F)(F)F)CC1 | -5%
Cc1cc(C(=O)Nc2ccc(C(C)C)cc2)c2c(C)nn(-c3ccccc3)c2n1 | -5%
COc1ccc(-c2cn3cccnc3n2)cc1NC(=O)COc1ccccc1 | -9%
COC(=O)c1ccc(Cl)cc1NC(=O)Nc1nnc(N2CCCC2)s1 | 11%
Cc1cc(-n2c(SCC(=O)NCc3ccccc3)nc3ccsc3c2=O)ccc1Cl | 9%
CCN(CC)S(=O)(=O)c1ccc(NC(=O)[C@H](CCSC)N2Cc3ccccc3C2=O)cc1 | 14%
Cc1ccc(CNC(=O)CSc2nc3ccsc3c(=O)n2Cc2ccccc2F)cc1 | 1%
COc1ccc(-c2nc3sc(CCNC(=O)C(=O)Nc4ccccc4C#N)c(C)n3n2)cc1 | 1%
Cc1ccc(CN(Cc2ccco2)C(=O)COc2ccc(C(C)C)cc2)cc1 | 9%
CC(C)CN(CCCNC(=O)c1cc(-c2ccc(Br)s2)nc2ccccc12)CC(C)C | -4%
COc1ccc(Oc2nc3c(c(=O)n(Cc4ccccc4Cl)c(=O)n3C)n2C)cc1 | 0%
COc1ccc(NC(=O)c2cnc(N3CCCCC3)c3ccccc23)cc1Cl | 12%
COc1ccc2c(c1)CC(NC(=O)Nc1c(C)cc(C)cc1C)CO2 (stereo unspecified) | -1%
CCOc1ccc(NC(=O)[C@H]2O[C@@H]3OC(C)(C)O[C@@H]3[C@H]3OC(C)(C)O[C@H]32)cc1 | -3%
O=C(c1ccc2c(c1)N(Cc1ccccc1F)C(=O)c1ccccc1S2(=O)=O)N1CCCCCC1 | 8%
Cc1cccc(N2CCN(C(=O)Cn3ncc4c([nH]c5ccccc54)c3=O)CC2C)c1 (stereo unspecified) | -2%
O=C(NCc1ccco1)c1ccc2c(c1)N(Cc1ccc(F)cc1)C(=O)c1ccccc1S2(=O)=O | 13%
COc1ccc(C(=O)N(Cc2ccc(C(C)C)cc2)C2CCS(=O)(=O)C2)cc1 (stereo unspecified) | -8%
CCOc1ccccc1NC(=O)Cn1c(=O)n(-c2ccc(F)cc2)c(=O)c2c3c(sc21)CN(C(C)=O)CC3 | -9%
O=C(Cn1ncn2c(cc3sccc32)c1=O)NCCc1ccccc1 | 5%
COc1cccc(CSc2nc3cc(C(=O)NC4CCCC4)ccc3c(=O)n2Cc2ccccc2)c1 | 2%
COc1ccc(OC)c(NS(=O)(=O)c2ccc(-n3cccn3)cc2)c1 | 22%
CCOCCCNC(=O)c1ccc2c(c1)NC(=O)C(CS(=O)(=O)Cc1ccc(F)cc1Cl)N2 (stereo unspecified) | -14%
COC(=O)c1c(C)nn(-c2ccc(F)cc2)c1-n1cccc1 | 7%
CCOC(=O)C1CCN(C(=O)CSc2n[nH]c(-c3ccccc3Cl)n2)CC1 | -3%
CCOC(=O)c1ccccc1NC(=O)c1sc2ncn(CC)c(=O)c2c1C | -1%
COc1ccc(NC(=O)Cn2c(=O)n(Cc3nc(-c4ccccc4)no3)c(=O)c3ccccc32)cc1Cl | 5%
CCOC(=O)c1c(-c2ccc(OC)c(OC)c2)csc1NC(=O)c1ccc(C)cc1 | -3%

# In the list so far, three have a furan ring, fused or not:
structure | miR-21 FLuc
Cc1ccc(NC(=O)c2c(C)oc3ccc(O)c(CN4CCCC4)c23)c(C)c1 | 3%
Cc1ccc(CN(Cc2ccco2)C(=O)COc2ccc(C(C)C)cc2)cc1 | 9%
O=C(NCc1ccco1)c1ccc2c(c1)N(Cc1ccc(F)cc1)C(=O)c1ccccc1S2(=O)=O | 13%

# Next entries follow:
structure | miR-21 FLuc
COc1ccc(CCNC(=O)C(=O)NCC(c2cccnc2)N2CCN(c3ccccc3)CC2)cc1 (stereo unspecified) | -1%
COC(=O)c1c(SC)nc2ccccc2c1OCc1ccc(Cl)cc1 | 1%
Cc1ccccc1Cn1c2ccccc2c2cnn(CC(=O)N3CCC(C)CC3)c(=O)c21 | 7%
CCCCNc1nc2c(S(=O)(=O)c3ccc(C)cc3)nnn2c2ccsc12 | -3%
CCOC(=O)c1nnn(CC(=O)NC(=O)Nc2ccccc2F)c1C(=O)OCC | 7%
O=C(NCCc1ccccc1)c1cc(-c2ccc(Cl)c(Cl)c2)on1 | -4%
COc1ccc(C(=O)NCC(c2ccc(N(C)C)cc2)N2CCCC2)c(OC)c1 (stereo unspecified) | -4%
O=C(CSc1ncc(-c2ccccc2)[nH]1)Nc1cccc(Br)c1 | -20%
Cc1ccc(C)c(NC(=O)N2CCN(c3nnc(C)c4c(C)n(-c5ccccc5)nc34)CC2)c1 | -9%
CCOc1ccc(CCNC(=O)c2ccc3c(c2)N(Cc2ccc(C)cc2)CCS3)cc1 | 1%
COc1ccc(S(=O)(=O)N(CCc2ccccc2)CC(=O)Nc2cc(C)cc(C)c2)cc1OC | 20%
COc1ccc(C(=O)N(c2ccc(C)cc2)S(=O)(=O)c2ccc(C)cc2)cc1 | 26%
O=C(CC1N=C2c3ccccc3N=C(SCC(=O)Nc3cccc(C(F)(F)F)c3)N2C1=O)NCc1cccs1 (stereo unspecified) | 4%
O=C(CN1CCSc2ccccc21)N1CCN(c2ccc(F)cc2)CC1 | 0%
COc1ccc(Br)cc1CN1C(=O)c2ccccc2C1C(=O)NC1CCCCCC1 (stereo unspecified) | -5%
CCCCOC(=O)c1ccc(Nc2ncnc3[nH]ncc23)cc1 | -3%

# Five compounds drawn at random from those above, as already listed:
structure | miR-21 FLuc
Cc1ccc(C)c(NC(=O)N2CCN(c3nnc(C)c4c(C)n(-c5ccccc5)nc34)CC2)c1 | -9%
COc1ccc(Br)cc1CN1C(=O)c2ccccc2C1C(=O)NC1CCCCCC1 (stereo unspecified) | -5%
O=C(CC1N=C2c3ccccc3N=C(SCC(=O)Nc3cccc(C(F)(F)F)c3)N2C1=O)NCc1cccs1 (stereo unspecified) | 4%
CCOc1ccc(CCNC(=O)c2ccc3c(c2)N(Cc2ccc(C)cc2)CCS3)cc1 | 1%
COc1ccc(S(=O)(=O)N(CCc2ccccc2)CC(=O)Nc2cc(C)cc(C)c2)cc1OC | 20%

# Next part.
structure | miR-21 FLuc
CCOC(=O)C1CCCN(C(=O)Cn2ncc3c4ccccc4n(Cc4ccccc4)c3c2=O)C1 (stereo unspecified) | ?
O=C(Nc1cccc(C(=O)OCc2cc(=O)n3nc(C4CC4)sc3n2)c1)c1ccccc1 | -10%
COc1ccc(OC)c(NC(=O)CSC2=Nc3ccccc3C3=NC(CC(=O)NCc4ccco4)C(=O)N23)c1 (stereo unspecified) | -3%
Cc1c(Cl)cccc1NC(=O)CCS(=O)(=O)c1ccc2c(c1)CC(C)N2C(=O)C1CC1 (stereo unspecified) | 30%
Cc1c(NC(=O)Nc2ccc(F)c(Cl)c2)c(=O)n(-c2ccccc2)n1C | 8%
COc1ccc(C2c3c(n(C)c4ccccc34)C(=O)N2CC(=O)Nc2ccc(C)cc2Cl)cc1 (stereo unspecified) | 8%
CCc1ccccc1NC(=O)c1cnn2c(C(F)(F)F)cc(-c3ccc(OC)c(OC)c3)nc12 | -3%
O=C(CN1C(=O)C(c2ccc(F)cc2)=NC12CCCCCC2)Nc1ccc(F)c(Cl)c1 | ?
CC(C)COc1ccc(C(=O)N2CCCCC2CCN2CCCCC2)cc1 (stereo unspecified) | 5%
Cc1ccc(NC(=O)CSc2nc3n[nH]c(C)c3c(=N)n2-c2cccc(C)c2)cc1 | 5%
Cc1cccc(C)c1NC(=O)C1CCCN1S(=O)(=O)c1cccc2nsnc12 (stereo unspecified) | -1%
COc1ccc(-c2nc(C)c(CCNC(=O)c3c(F)cccc3F)s2)cc1 | -30%
Cc1ccc(NC(=O)C(=O)NCC(c2cccnc2)N2CCOCC2)cc1C (stereo unspecified) | ?
CCC1CN(C(=O)N2CCC(C(=O)NCCN(CC)CC)CC2)c2ccccc2O1 (stereo unspecified) | 18%
Cc1ccc(NCc2ccc(C)s2)cc1 | -23%
COc1ccccc1-c1nn2c(=O)cc(CN3CCN(C(=O)Nc4ccc(C)cc4Cl)CC3)nc2s1 | -3%
CCCN(CCC)CC(O)Cn1cc(/C=C/C(=O)c2ccc(OC)cc2)c2ccccc21 (stereo unspecified) | 0%
COc1ccc(-c2nnc(SCC(=O)Nc3ccc(Cl)cc3)s2)cc1 | -16%
Cc1cc(C)c(Cn2c3ccccc3c3cnn(CC(=O)NCCc4ccccc4)c(=O)c32)c(C)c1 | -3%
CCS(=O)(=O)N1CCc2cc(C(=O)NCc3ccccc3)ccc21 | -2%
CCn1c2c(c(=O)n3ncc(C(=O)N4CCN(c5ccc(Cl)cc5)CC4)c13)CN(Cc1ccc(OC)cc1)CC2 | ?
O=C(NC(=O)c1ccc(F)cc1)Nc1ccc(-c2cc(C(F)(F)F)nn2-c2ccccc2)cc1 | -14%
Cc1cccc(CSc2nc(-c3cccs3)ccc2C#N)c1 | -2%
CCCc1cc(=O)[nH]c(SCc2nc(-c3ccccc3F)no2)n1 | -4%
COc1cccc(Cn2c(CNC(=O)c3cc([N+](=O)[O-])ccc3Cl)nc3cccnc32)c1 | ?
Cc1cc(C)cc(NC(=O)CCc2c(C)nn(-c3ccc(N4CCCC4)nn3)c2C)c1 | -29%
CC(C)OC(=O)c1ccc(Cn2nnc3sc4c(c3c2=O)CCCC4)cc1 | 5%
